# Compound activity (PubChem BioAssay)
# Calb FLC – C. albicans growth modulation with fluconazole; C. albicans CaCi-2 (fluconazole-resistant clinical isolate) + fluconazole, Alamar Blue growth, 48 h; growth inhibition, % (test concentration not listed); 0.57% of 300,000 active; AID 1979;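 active = most replicates above 75%; inconclusive = exactly half above 75%; inactive = most below 75%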;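 note: all wells also contain fluconazole at 8 µg/ml as a sub-toxic cotreatment; 0% = median of DMSO wells and 100% = median of geldanamycin control wells; wells of about 8 µL received 7.5 nL stock; the first replicate is given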
# Beta cell apopt – beta cell apoptosis inhibition | INS-1E cytokine-induced death, ATP luminescence, 48 h; percent of positive-control rescue, neutral wells zero | protection from apoptosis, % (no concentration beside the values) | 0.8% of 300,000 active | AID 435005;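 active = all replicates at 75% or more, or half of them and the mean; inconclusive = half reach 75% but not the mean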;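 note: 0% = cytokine-treated negative control wells and 100% = positive control rescue; higher means more ATP so stronger rescue from cytokine killing; wells of about 40 µL received 100 nL stock; the first replicate is given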
# RanGTP-Impb inh – disruptors of Ran-importin-beta complex formation – biochemical, FRET, CFP-Ran, YFP-importin-beta, homogeneous, primary screen; cell-free CFP-Ran/YFP-importin-beta FRET ratio; inhibition, % (no concentration beside the values); 1.1% of 300,000 active;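 active = most replicates above 15%; inconclusive = exactly half above 15%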;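 note: 0% = DMSO wells and 100% = Ran loaded with GDP instead of GTP; wells of about 40 µL received 100 nL stock; the first replicate is given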
# FGF22 binding – binders of recombinant human FGF22 by thermal shift; SYPRO orange fluorescence; percent of sucrose octasulfate shift, DMSO zero; calls only at 9.99 µM; 1.5% of 340,000 active; AID 651658;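 active = melting point raised past a set limit in the mean and every replicate; inconclusive = no clear call; three in four hits are not shown here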
# Target sequence (Q9HCT0 whole entry, looked up): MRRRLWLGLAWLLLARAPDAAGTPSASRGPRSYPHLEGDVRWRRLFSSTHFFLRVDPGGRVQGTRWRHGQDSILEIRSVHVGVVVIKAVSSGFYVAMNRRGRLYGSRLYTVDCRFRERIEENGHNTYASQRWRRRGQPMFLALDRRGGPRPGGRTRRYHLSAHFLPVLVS
# ALR inh – human ALR oxidase inhibition via reduced H2O2; P55789; purified ALR, DTT oxidation, H2O2 HRP-luminol luminescence; inhibition, % (concentration not given with the values); 3.8% of 290,000 active;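 active = mean and each replicate at 75% or more; inconclusive = only one of the two met; inactive = neither met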;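 note: stock transfer was 7.5 nL into about 7.5 µL; 0% = neutral wells and 100% = wells with inactivated enzyme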
# Target sequence (P55789 whole entry, looked up): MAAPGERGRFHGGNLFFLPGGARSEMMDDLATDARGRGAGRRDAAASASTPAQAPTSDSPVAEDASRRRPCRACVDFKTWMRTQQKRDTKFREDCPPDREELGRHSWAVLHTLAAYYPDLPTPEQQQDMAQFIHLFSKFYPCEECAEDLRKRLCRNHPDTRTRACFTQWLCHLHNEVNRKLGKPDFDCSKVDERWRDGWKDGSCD
# T cruzi inh – T. cruzi replication inhibition | T. cruzi beta-gal in NIH3T3, luminescence, 90 h | inhibition, % (concentration not given with the values) | 1.4% of 300,000 active | AID 1885;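 active = mean inhibition across valid replicates above about 55%, limit read from the data; inconclusive = mean below that limit but half or more replicates reach it; inactive = mean below it, under half of replicates reach it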;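 note: signal also drops with host cell toxicity which is not excluded here; 0% = plate median of DMSO wells and 100% = zero luminescence signal; higher percent means less beta-gal luminescence so fewer parasites; stock transfer was 50 nL into about 50 µL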
# MLL AF4-AF9 inh – blocks AF4 peptide binding to human AF9 | AlphaScreen, biotin-AF4 peptide binding to FLAG-AF9 | 0.47% of 350,000 active | inhibition, % at 10 µM | P42568;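 active = every replicate reaching a set inhibition limit, whatever the replicate mean, cut at about 25% in these data; inconclusive = mean inhibition reaches that limit but some replicates miss it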;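 note: 0% = plate neutral control median and 100% = total signal loss; the record names both 10 and 1 µM as test concentration; the first replicate is given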
# Target sequence (P42568 whole entry, looked up): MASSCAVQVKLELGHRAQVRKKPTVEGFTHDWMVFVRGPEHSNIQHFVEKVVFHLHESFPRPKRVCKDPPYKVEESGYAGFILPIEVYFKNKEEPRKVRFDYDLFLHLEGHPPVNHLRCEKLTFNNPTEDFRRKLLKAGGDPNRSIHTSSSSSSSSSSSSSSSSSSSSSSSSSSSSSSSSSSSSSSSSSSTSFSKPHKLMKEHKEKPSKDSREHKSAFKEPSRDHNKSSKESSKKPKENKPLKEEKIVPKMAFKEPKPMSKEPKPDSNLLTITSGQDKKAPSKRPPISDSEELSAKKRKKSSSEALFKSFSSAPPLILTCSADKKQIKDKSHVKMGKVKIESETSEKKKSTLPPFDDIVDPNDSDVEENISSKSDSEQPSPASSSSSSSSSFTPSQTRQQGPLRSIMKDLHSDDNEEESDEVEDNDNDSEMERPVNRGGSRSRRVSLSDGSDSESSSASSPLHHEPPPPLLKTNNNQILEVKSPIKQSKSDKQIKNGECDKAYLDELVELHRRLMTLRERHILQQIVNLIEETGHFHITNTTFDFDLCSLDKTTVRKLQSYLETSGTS
# Ecoli rRNA inh – inhibits bacterial ribosomal RNA function over humanized ribosomes. E. coli WT GFP vs humanized-ribosome RFP mutants, fluorescence, 24 h; stronger effect = lower value; DMSO median 0, no signal -100. GFP signal change (wild-type ribosome), % (no concentration beside the values). 1.6% of 350,000 active;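 active = significant combined selectivity score with lowered wild-type GFP, culture density cut under 30%, mutant RFP and density less affected; inactive = any of these conditions unmet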; note: one replicate is shown; some compounds called inactive have numbers as strong as hits
# Ecoli rRNA inh OD600 – also measured in Ecoli rRNA inh; calls as there; OD600 change, %; measured here: OD600 growth;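 optical density of the mix in the first replicate; 0 = DMSO median and -100 = no signal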
# Ecoli rRNA inh RFP – second read-out of Ecoli rRNA inh, no call of its own (marks repeat the call); RFP signal change, %; measured here: RFP humanized mutant strains;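 first replicate; 0 = DMSO median and -100 = no signal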
# * marks the source's active call; other numbers are inactive results; i = inactive; ? = inconclusive; . = no result given. The list is partial; count on the stated rates, not on these rows.
entry	SMILES	Calb FLC	Beta cell apopt	RanGTP-Impb inh	FGF22 binding	ALR inh	T cruzi inh	MLL AF4-AF9 inh	Ecoli rRNA inh	Ecoli rRNA inh OD600	Ecoli rRNA inh RFP
1	Cc1ccc(C(=O)OC(C)C(=O)NC2CCCCC2C)s1 (stereo not drawn)	.	-3	.	i	-3	.	-1.9	13	13	3.8
2	Cc1nc(SCC(=O)c2cc3ccccc3oc2=O)c(C#N)c(-c2ccccc2)c1C(=O)Nc1ccccc1	2	13	0.1	i	32	-12	-2.6	12	4	8.0
3	COc1ccc(CC(=O)Nc2nc3ccc(F)cc3s2)cc1S(=O)(=O)N1CCOCC1	-1	3	7.2	.	99*	-7	.	.	.	.
4	CSc1ncccc1C(=O)N1CCN(S(=O)(=O)c2ccc(F)cc2)CC1	4	-4	0.9	i	-2	-5	0.1	3	16	-2.1
5	CC(c1ccccc1)n1c(N2CCN(C)CC2)nc2c1c(=O)[nH]c(=O)n2C (stereo not drawn)	14	-2	2.0	i	-7	4	-1.8	-3	2	1.8
6	CSc1nc(O)c(Cc2ccccc2)c(=O)[nH]1	13	-1	0.2	.	.	-7	.	.	.	.
7	O=C(CCNC(=O)c1ccc(Br)cc1)NCCCc1ccccc1	4	-1	1.6	i	1	-5	-8.6	-2	0	0.2
8	CCN(CC)c1nc2n(c(=S)n1)CCS2	-20	.	1.3	.	5	-10	.	.	.	.
9	Cc1ccc(S(=O)(=O)N2CCN(C(=O)c3sccc3-c3ccccc3)CC2)cc1	0	12	-1.5	i	-11	15	1.5	-34	-37	-7.6
10	COc1ccc(N(CC(=O)Nc2cccnc2)S(=O)(=O)c2ccc(C)cc2)cc1Cl	-2	0	1.1	i	-2	5	3.6	-1	-10	4.8
11	CC1CCc2c(sc3ncnc(NCCN4CCOCC4)c23)C1 (stereo not drawn)	-4	5	?	i	8	17	-4.6	-8	-14	-3.0
12	O=C1c2ccccc2S(=O)(=O)N1Cc1ccccc1[N+](=O)[O-]	14	-6	-1.9	i	-8	-6	-3.5	10	14	-0.9
13	CN(C)CCCNC(=O)c1ccc(=O)[nH]n1	-5	-6	-0.3	i	-4	-12	3.5	2	14	6.7
14	Cc1ccc(OCC(=O)Nc2cccc(S(=O)(=O)NC3=NCCCCC3)c2)cc1C	-14	-9	-5.5	i	-1	-3	-2.1	-5	-10	5.6
15	CCOc1ccc(N(C)S(=O)(=O)c2ccc3[nH]cc(C(=O)NCCCOC)c(=O)c3c2)cc1	3	11	1.2	i	-12	4	1.1	-3	-19	13
16	COc1ccc(CNC(=O)Cn2nc([N+](=O)[O-])c(Br)c2C)cc1	-6	-6	-3.1	i	-2	-2	-1.7	6	10	-5.1
17	COc1ccc(-c2csc3ncnc(NCCN4CCOCC4)c23)cc1	-26	-16	0.2	.	1	17	.	.	.	.
18	Cc1ccccc1C(=O)NC1CC2CCCC(C1)N2C(=O)Nc1ccccc1 (stereo not drawn)	2	2	-5.4	.	-8	4	2.0	-7	-2	-7.6
19	O=C(C(Sc1ccccc1)c1ccccc1)N1CCN(c2ccccc2F)CC1 (stereo not drawn)	-1	90*	-0.2	.	3	6	.	.	.	.
20	CCCC1=NN(C(=O)CCc2ccccc2O)C(O)(C(F)(F)F)C1 (stereo not drawn)	-9	-7	-2.4	i	.	-11	0.1	1	-2	-2.1
21	CCOC(=O)c1ccccc1NC1c2ccccc2C(=O)N1c1ccc(C)cn1 (stereo not drawn)	-4	-2	-5.1	i	-5	22	1.6	-4	8	-7.2
22	O=C(O)c1cccc(NC(=S)N/N=C/c2ccccn2)c1	64	-7	4.4	i	-6	9	-3.5	9	-2	5.7
23	CCc1ccc(CN(C)C(=O)c2ccc3c(=O)n4c(nc3c2)CCC4)cc1	5	.	4.8	i	5	-11	-1.1	-1	-6	-1.6
24	CCOC(=O)CN1C(=O)COc2ccc(C(C)(C)C)cc21	27	0	-3.5	.	.	-1	.	.	.	.
25	CN(C)CCCNC(=S)N(CCCO)Cc1cc2cc3c(cc2[nH]c1=O)OCO3	9	-3	3.3	i	-16	-5	-1.0	7	10	-0.4

# More compounds:
entry	SMILES	Calb FLC	Beta cell apopt	RanGTP-Impb inh	FGF22 binding	ALR inh	T cruzi inh	MLL AF4-AF9 inh	Ecoli rRNA inh	Ecoli rRNA inh OD600	Ecoli rRNA inh RFP
26	CCCCNC(=O)Cn1c(=O)c2c(ncn2CC)n(Cc2ccccc2)c1=O	7	-6	-0.4	i	-9	-1	-22	5	5	-0.8
27	CCc1ccc(NC(=O)[C@H](Cc2c[nH]c3ccccc23)NC(=O)[C@@H]2Cc3ccccc3CN2)cc1	-2	.	-0.7	i	-29	-5	3.2	.	.	.
28	Cc1cccc(C)c1NC(=O)c1cn(-c2ccccc2)nc1-c1ccccc1	-2	0	-2.1	i	.	-14	-2.2	.	.	.
29	COc1ccc(-n2nnnc2SCC(=O)NCCc2ccccc2)cc1OC	40	1	?	.	22	-7	1.5	-19	-20	-2.2
30	Cc1ccsc1C(=O)OCC(=O)c1cc(C)n(C)c1C	.	4	.	i	10	.	-8.7	-2	-9	1.6
31	Cc1sc(NC(=O)CSC2=NCCS2)nc1-c1ccccc1	3	-14	?	.	99*	8	.	.	.	.
32	CCCCCOC(=O)c1ccc(OC(=O)c2cncc(Br)c2)cc1	?	-6	2.1	.	0	-16	.	.	.	.
33	CC1=C(C(=O)OC2CCCCC2)C(c2cccc([N+](=O)[O-])c2)NC(=O)N1 (stereo not drawn)	-16	-3	3.7	i	.	-1	4.4	-12	-11	0.8
34	COC(=O)c1c(NC(=O)Cc2cccs2)sc(C)c1C	12	10	-2.7	i	-1	18	-13	-35	-34	-7.9
35	CS(=O)(=O)c1ccc(Cl)c(NC(=O)COC(=O)c2cccc(C#N)c2)c1	4	-4	-3.6	i	-2	-23	-2.1	2	5	0.9
36	C/C(=N\NC(=O)c1nn(C)c(C)c1Br)c1ccc(NC(=O)c2ccc(C)s2)cc1	-33	-4	-0.3	i	-4	11	-0.6	0	-2	-5.8
37	COC(C[C@H]1O[C@H]1[C@@H](O)[C@@H](C)OCc1ccccc1)OC	-11	.	-0.3	i	.	-18	-0.8	8	11	3.1
38	O=c1[nH]c2cc([N+](=O)[O-])c(NCCO)c([N+](=O)[O-])c2[nH]1	1	2	?	i	-8	-5	-1.3	6	5	0.3
39	N#CCC(=O)Nc1ccc(C(=O)OCC(=O)NCCCc2ccccc2)cc1	-19	1	-1.0	i	-6	-3	-0.8	3	1	11
40	Cc1cccc(C)c1NC(=O)C(c1ccc([N+](=O)[O-])cc1)N1CCCCC1 (stereo not drawn)	0	-7	5.8	.	-5	15	.	.	.	.
41	N#CC1=C(N)C(C#N)(C#N)[C@H](c2c(F)cccc2F)[C@H]2CC3(CC=C12)OCCO3	4	21	-4.9	i	-34	0	8.0	11	-6	30
42	CC1=C(C(=O)OCC2CCCO2)C(c2ccc(O)cc2)NC(=O)N1 (stereo not drawn)	7	-2	6.1	.	0	-9	.	.	.	.
43	CC1=C(C(=O)Nc2cccnc2)C(c2ccc(C(C)C)cc2)n2ncnc2N1 (stereo not drawn)	-9	.	0.3	i	.	-12	8.5	0	1	-0.5
44	CCOC(=O)N1CCN(S(=O)(=O)N2CCCC(C(=O)NCCc3ccc(Cl)cc3)C2)CC1 (stereo not drawn)	4	-3	3.7	i	-2	6	2.5	-2	0	-2.2
45	CS(=O)(=O)N1CCc2cc(C(=O)Nc3ccc(COCC(F)(F)F)cc3)ccc21	-10	7	1.6	i	-11	-24	-6.6	0	10	-1.0
46	C#CCn1c(C)cc(C)c(S(=O)(=O)c2ccccc2)c1=O	11	-4	-2.6	i	-17	4	-0.7	11	11	-5.7
47	C=CCOC(=O)C1=C(C)Nc2ncnn2C1c1cc(Br)ccc1F (stereo not drawn)	8	-2	3.0	.	-5	0	.	.	.	.
48	O=C(O)CCC(=O)NN1C(=O)c2ccccc2NC1c1ccco1 (stereo not drawn)	-8	-8	-0.8	i	2	-3	-0.9	10	-3	1.8
49	CCN(C(=O)CSc1nc2ccc(C)cc2[nH]1)C1CCS(=O)(=O)C1 (stereo not drawn)	.	-1	.	i	23	.	-1.0	11	13	2.5
50	Cc1nc(N2CCN(c3ccccc3)CC2)nc2c1C(=O)CC(C)C2 (stereo not drawn)	20	5	3.1	.	73	11	.	-33*	-22*	-7.8*

# Next structures
entry	SMILES	Calb FLC	Beta cell apopt	RanGTP-Impb inh	FGF22 binding	ALR inh	T cruzi inh	MLL AF4-AF9 inh	Ecoli rRNA inh	Ecoli rRNA inh OD600	Ecoli rRNA inh RFP
51	O=C(CSc1ccc2nnc(-c3ccccn3)n2n1)Nc1ccccc1C(F)(F)F	-8	-2	3.3	i	-6	-9	-2.3	13	10	1.8
52	CC(=O)Nc1oc(-c2cccc3ccccc23)nc1C#N	.	-1	.	i	-1	.	1.7	-30	-40	3.2
53	CCCCC(=O)Nc1ccc(C(=O)NCC(=O)OC)cc1	7	-2	6.0	.	-5	-7	.	.	.	.
54	O=C(NC1CC1)C1=C[C@@H](c2csc3ccccc23)C[C@@H](OCCCCO)O1	3	-1	3.4	i	-11	11	0.3	1	-6	1.0
55	COc1ccc2c(c1)c(=O)oc1c(C)c(OC(C)C(=O)NCC3CCC(C(=O)O)CC3)ccc12 (stereo not drawn)	7	.	4.1	i	12	9	-1.7	.	.	.
56	Cc1cccc(CS(=O)(=O)Cc2ccc(C(=O)NCc3ccccc3)o2)c1	-3	0	26	i	0	-16	-0.2	-18	-19	-9.6
57	CC(C)c1cccc(C2=CC(=O)C[C@H](c3ccc(F)cc3)C2)c1	.	5	.	i	1	.	3.2	-13	-32	-8.0
58	CC(=O)Nc1ccc(NC(=O)CN(c2ccccc2Cl)S(C)(=O)=O)cc1	-16	4	-0.8	.	-7	-3	.	.	.	.
59	COc1ccc(C2=NS(=O)(=O)N(C)C(C(=O)NCc3ccccn3)=C2)cc1	-6	-13	-0.1	i	.	-16	-1.0	-3	3	3.0
60	COc1ccc2nc(NC(=S)N(C)C)sc2c1	?	17	-1.0	.	73	60*	.	.	.	.
61	Cc1cc(S(=O)(=O)N2CCC(NC(=O)C34CC5CC(CC(C5)C3)C4)CC2)ccc1-n1cnnn1	4	9	7.3	.	-8	38	.	.	.	.
62	CC(=O)OC1c2ccccc2C(=O)N1c1ccccc1C (stereo not drawn)	-3	1	1.2	i	-32	-17	2.1	7	9	-0.1
63	Cc1nc2ccc(S(=O)(=O)N(C)CC(=O)NCc3ccc4c(c3)OCO4)cc2s1	2	-3	2.0	.	.	-1	.	.	.	.
64	O=S(=O)(c1ccc(-c2cc(C(F)(F)F)on2)s1)N1CCCC1	1	1	-1.1	i	.	11	-0.8	-6	11	3.1
65	COCCNC(=O)CCc1nnc(Cc2ccc(-c3ccccc3)cc2)o1	-19	-8	2.6	i	5	-6	0.6	-2	-2	-3.3
66	O=C(Nc1nc2ccc(Br)cc2s1)c1ccco1	1	-1	-4.8	i	27	-9	2.6	8	2	-2.8
67	NC1=NC(=O)C(CC(=O)c2ccc(Cl)cc2)S1 (stereo not drawn)	-6	-2	3.0	i	.	-22	2.9	7	13	3.3
68	Cc1ccc(C)c(OC(=O)c2cccnc2)c1	5	4	1.7	.	-12	0	.	.	.	.
69	CCCCn1c(-c2ccccc2)nnc1-c1ccccc1	4	1	-1.5	.	1	0	.	.	.	.
